Screening data: PubChem BioAssay, National Center for Advancing Translational Sciences (NCATS)
Rango-impB inh = Rango-importin beta binding inhibition; Q14974; Rango CFP/YFP FRET sensor + importin beta, 45 min; Potency, µM (highest dose often 92.2 µM), for inactives: top-dose inhibition of complex formation; actives 0.031% (n = 340,000); AID 540263; active = rising FRET ratio curve, often small or poorly fitted; inconclusive = mostly compound fluorescence or quenching in the first reads; inactive = flat curves in all reads;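 also: potency is read from the fitted curve at half-maximal effect; 0% = DMSO wells and 100% = buffer wells lacking importin beta; nearly all actives have a fitted effect of over 15% in size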
Target sequence (Q14974 whole entry, looked up): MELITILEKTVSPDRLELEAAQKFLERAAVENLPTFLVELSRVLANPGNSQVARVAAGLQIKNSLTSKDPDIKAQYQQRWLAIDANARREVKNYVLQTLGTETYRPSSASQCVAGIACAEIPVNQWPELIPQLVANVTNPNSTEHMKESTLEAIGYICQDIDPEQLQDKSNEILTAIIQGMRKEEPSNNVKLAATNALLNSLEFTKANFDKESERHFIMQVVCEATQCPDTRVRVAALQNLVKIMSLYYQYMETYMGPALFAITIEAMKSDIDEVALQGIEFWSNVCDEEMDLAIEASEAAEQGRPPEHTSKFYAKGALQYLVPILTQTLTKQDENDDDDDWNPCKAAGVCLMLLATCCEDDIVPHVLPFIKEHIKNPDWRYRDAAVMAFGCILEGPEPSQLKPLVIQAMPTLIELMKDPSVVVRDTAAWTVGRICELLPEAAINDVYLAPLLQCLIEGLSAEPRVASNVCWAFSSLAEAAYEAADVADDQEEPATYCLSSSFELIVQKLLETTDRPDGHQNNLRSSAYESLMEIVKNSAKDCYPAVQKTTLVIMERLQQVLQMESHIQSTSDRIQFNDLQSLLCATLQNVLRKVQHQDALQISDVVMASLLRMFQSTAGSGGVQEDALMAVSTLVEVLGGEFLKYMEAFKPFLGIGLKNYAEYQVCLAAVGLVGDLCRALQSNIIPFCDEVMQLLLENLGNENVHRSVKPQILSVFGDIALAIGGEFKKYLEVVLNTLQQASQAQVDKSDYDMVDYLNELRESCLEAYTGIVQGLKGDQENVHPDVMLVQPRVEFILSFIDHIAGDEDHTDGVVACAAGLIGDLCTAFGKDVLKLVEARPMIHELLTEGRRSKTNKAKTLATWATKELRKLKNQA
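FRET biosensor (snurportin 1 IBB flanked by EYFP and cerulean), 50 nM, with compound 5 min, then 0.125 microM importin beta in PBS, 1 mM DTT, 0.02% Tween-20, 0.1% BSA. CFP/YFP ratio read after 45 min at room temperature; pre-read flags interference.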
GLA inh pH 4.5 = inhibitors of human alpha-galactosidase A at pH 4.5. P06280. purified enzyme, 4-MU-alpha-Gal fluorescence, pH 4.5. activity change, negative = inhibition, % at 105 µM. 230,000 tested, under 10 active; inconclusive = small, poorly fitted or top-dose-only inhibition, or a rising curve; inactive = flat fitted curve, though single readings scatter; no compound was filed as active;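 also: 0% = full activity with enzyme and -100% = basal without enzyme; dose as in the result columns while the protocol names 77 µM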
miR-21 reporter = miR-21 reporter, rising signal | HeLa miR-21 FLuc reporter, luciferase, 48 h | Potency, µM (highest dose often 38.3 µM), without a hit: at the highest dose reporter change, positive = more light | 340,000 tested, under 10 active | AID 2288; active = well fitted rising curve with a large enough effect; inconclusive = small, poorly fitted or top-dose-only effect; inactive = no such curve, though single readings can be large or run the other way;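 also: % of control where 0% means no effect; miR-21 action dims this reporter so a rising signal means less miR-21 action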
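Compounds were titrated across several concentrations (up to approximately 40 uM) and incubated 48 hours with HeLa miR-21-FLuc reporter cells (miR-21 target sequence downstream of FLuc, endogenous miR-21). Readout was firefly luciferase luminescence after lytic detection reagent.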
Rango release inh = inhibition of RanGTP-driven Rango-importin beta dissociation | actives 0.071% (n = 340,000) | Biochemical FRET Rango-importin beta, RanGTP-induced dissociation | AID 540253 | Potency, µM (highest dose often 46.1 µM), inactives show top-dose activity change, negative = inhibition; active means falling FRET ratio curve, often poorly fitted, with flat reads before Ran was added; inconclusive means other falling curves, or compound fluorescence or quenching; inactive means flat or rising ratio curve;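 also: potency is read from the fitted curve at half-maximal effect; % of control where 0% means no effect; nearly all actives have a fitted effect of over 45% in size; -100% = wells without RanGTP and RCC1; the record marks most hits as doubtful in a second field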
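FRET read at 45 min, room temperature: inhibitors block the CFP/YFP signal rise when RanGTP (0.6 uM Ran, 2 mM GTP, 0.2 uM RCC1) frees Rango (0.1 uM) from importin beta (0.25 uM). Pre-read after 5 min compound exposure flags interference.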
The depositor's hits bear a star; u = inconclusive; x = no result given.

entry	Molecule	Rango-impB inh	GLA inh pH 4.5
1	Cn1c(NC(=O)c2ccco2)c(-c2ccccc2)c(=O)c2ccccc21	1.0%	9.0
2	O=C(O)c1ccc2cccc(O)c2n1	5.1%	2.8
3	CCO/N=C(\C)c1c(O)c(CC)c(-c2ccccc2)n(-c2ccccc2)c1=O	-2.7%	-7.8
4	COc1ccc(CC(=O)Nc2ccc(-c3noc(-c4ccccc4OC)n3)cc2)cc1	-0.3%	-1.1
5	CCC(CC)C(=O)Nc1cccc(SC)c1	x	-2.7
6	CCOC(=O)C1NN=C(C(=O)c2ccccc2)C1c1ccc(OC)cc1 (configuration not stated)	0.4%	2.7
7	CN(Cc1ccccc1)C(=O)c1cccc(NC(=O)Cc2ccc(NC(=O)C3CCN(C(=O)C4CCC4)CC3)cc2)c1	-1.5%	x
8	O=S(=O)(c1ccc2c(c1)OCCO2)N1CCN(Cc2ccc3c(c2)OCO3)CC1	2.1%	-18.5
9	O=C(O)C1CCCCC1C(=O)NCCCN1CCOCC1 (configuration not stated)	0.6%	6.6
10	COC(=O)CNc1nc(-c2ccccc2F)nc2ccccc12	-11.4%	-1.3

entry	miR-21 reporter	Rango release inh
1	-3.0%	-4.7%
2	-0.4%	11.4%
3	-7.0%	1.3%
4	-12.3%	-12.6%
5	-1.7%	x
6	0.4%	-4.9%
7	x	-8.0%
8	-12.6%	-6.7%
9	-6.8%	10.8%
10	-0.9%	-6.9%

Next compounds:
entry	Molecule	Rango-impB inh	GLA inh pH 4.5
11	CCNc1ccc(Br)cc(C(=O)/C=C/c2c(Cl)cccc2Cl)c1=O	1.7%	-11.7
12	CCCCCCCCc1nc(=S)[nH][nH]1	-0.5%	1.6
13	CCOCCCNC(=O)C(c1ccc(OC)cc1)N(Cc1cccs1)C(=O)c1ccccn1 (configuration not stated)	3.3%	-0.7
14	C[C@H](NC(=O)c1ccco1)C(=O)Nc1ccc(C#N)cc1	-0.1%	x
15	Cc1ccc(NC(=O)NCc2ccccn2)cc1	1.4%	6.0
16	COCc1cc(CN2CCN(CCc3ccccc3)C(CCO)C2)ccc1OC (configuration not stated)	-0.2%	x
17	O=C(O)CC(CC(=O)Nc1ccccc1C(=O)O)c1ccccc1 (configuration not stated)	-3.9%	7.3
18	O=[N+]([O-])c1ccc2nc(-[n+]3c(-c4ccccc4)cc(-c4ccccc4)cc3-c3ccccc3)[nH]c2c1	u	-8.1
19	Cc1cccc(N(C(=O)c2ccco2)C(C(=O)NC2CCCC2)c2ccco2)c1C (configuration not stated)	4.1%	x
20	Cc1onc(-c2c(Cl)cccc2Cl)c1C(=O)ONC(=O)c1cc(C(F)(F)F)cc(C(F)(F)F)c1	2.9%	-2.9

entry	miR-21 reporter	Rango release inh
11	-10.1%	-23.5%
12	15.0%	-15.0%
13	10.5%	12.2%
14	3.0%	-16.1%
15	-24.5%	0.5%
16	2.6%	1.4%
17	0.3%	2.1%
18	u	-7.3%
19	2.9%	-0.6%
20	-1.0%	-7.1%

The list goes on:
entry	Molecule	Rango-impB inh	GLA inh pH 4.5
21	CN(C)CCSc1nnc(-c2ccccc2)o1	1.1%	-2.1
22	Brc1ccc(/C=N/Nc2ncnc3c2cnn3Cc2ccccc2)cc1	u	8.2
23	CSc1nc(O)c(/C=C2\C=Nc3ccccc32)[nH]1	u	1.9
24	COc1ccc(OC)c(-n2c(SCC(N)=O)nnc2-c2c[nH]c3ccccc23)c1	0.6%	3.7
25	Cc1cc(=O)oc2cc(OCC(=O)NC3CCCCC3)ccc12	-1.2%	x
26	Cc1cccnc1Nc1nc(-c2ccc(O)cc2O)cs1	-4.1%	-26.7
27	Cc1ccc(C(=O)c2sc3nsc(C)c3c2N)cc1	u	3.9
28	Cc1ccsc1/C=N/NC(=O)c1nnn(-c2nonc2N)c1-c1ccc2c(c1)OCO2	2.6%	x
29	CN1CCN(c2ccc(S(=O)(=O)N3CCCCC3)cc2NC(=O)Cc2ccc(Cl)cc2)CC1	-0.8%	-1.9
30	O=S(=O)(CCSc1ccc(C(F)(F)F)cn1)c1ccccc1	4.4%	-6.7

entry	miR-21 reporter	Rango release inh
21	-27.5%	6.6%
22	0.1%	-12.1%
23	-62.4%	-19.8%
24	-10.0%	-19.7%
25	-10.6%	-15.9%
26	-63.0%	4.5%
27	-53.7%	u
28	3.2%	-11.5%
29	-9.7%	1.8%
30	-17.4%	-8.5%

Going on with the list.
entry	Molecule	Rango-impB inh	GLA inh pH 4.5
31	COc1ccc(-c2nc(C#N)c(N3CCN(C(=O)c4ccco4)CC3)o2)cc1OC	0.1%	x
32	COc1cccc(NC(=S)NC(=O)Cc2ccccc2)c1	0.4%	x
33	O=C(CSc1ccccn1)Nc1ccc2c(c1)OCCO2	6.2%	5.8
34	O=C(CSc1ccc(Cl)cc1)NC(=O)NCc1ccco1	7.2%	-1.3
35	O=C(O)/C=C/c1cnc[nH]1	-0.7%	-2.1
36	CCn1ncc(Br)c1C(=O)Nc1cc(C(=O)OC)ccc1C(=O)OC	-0.7%	-0.3
37	Nn1c(Nc2ccccc2)nc2sc3c(c2c1=O)CCC3	-4.1%	-3.5
38	CN(C)S(=O)(=O)c1cccc(C(=O)Nc2ccc(S(=O)(=O)N3CCCC3)cc2)c1	-0.3%	-19.7
39	CCOc1ccc(NC(=O)/C(C#N)=C/c2cn(CC(=O)O)c3ccccc23)cc1	u	x
40	COc1ccccc1N(C(=O)CNC(=O)c1ccco1)C(C(=O)NC1CCCC1)c1ccco1 (configuration not stated)	-2.5%	x

entry	miR-21 reporter	Rango release inh
31	0.3%	10.2%
32	x	12.7%
33	-46.8%	-2.0%
34	-4.7%	7.2%
35	-4.1%	29.4%
36	-5.5%	-2.9%
37	-26.3%	3.4%
38	12.5%	u
39	-4.5%	-19.9%
40	-6.9%	-0.5%

Further entries follow.
entry	Molecule	Rango-impB inh	GLA inh pH 4.5
41	Cc1ccc(S(=O)(=O)O/N=C2/CCCc3occc32)cc1	-0.6%	5.3
42	Cc1cc(NC(=O)CSCC(=O)Nc2cccc(S(=O)(=O)N3CCCCCC3)c2)no1	-0.1%	x
43	CN(C)c1ccc(-c2c(-c3ccc4c(c3)OCO4)noc2-c2ccsc2)cn1	-2.6%	x
44	Cc1ccccc1OCC(=O)N/N=C/c1sc(=O)n(Cc2cccc(C(=O)O)c2)c1Cl	-5.8%	6.3
45	O=C(CSc1nnc(-c2ccncc2)n1Cc1ccco1)Nc1nccs1	0.9%	4.4
46	Cc1ccc(C(=O)NCCSc2c(C)[nH]c3ccccc23)cc1[N+](=O)[O-]	-0.4%	7.7
47	CSc1ccccc1NC(=O)c1cnccn1	1.4%	-8.9
48	COC(=O)c1sc2nc(SCC(=O)N(C)c3ccccc3)n(N)c(=O)c2c1C	u	4.8
49	COc1ccc(NC(=O)CSc2nnc(C)c3ccccc23)cc1	1.0%	x
50	CCOc1ccc(NC(=O)C(C)Oc2ccccc2C(=O)Nc2ccc(C)c(Cl)c2)cc1 (configuration not stated)	0.8%	-0.4

entry	miR-21 reporter	Rango release inh
41	-2.9%	-3.0%
42	x	0.0%
43	-21.3%	2.3%
44	-4.1%	-26.8%
45	-9.7%	-2.4%
46	7.0%	9.6%
47	-12.2%	0.1%
48	-26.8%	21.0%
49	-8.3%	-19.1%
50	7.5%	4.3%

Following part:
entry	Molecule	Rango-impB inh	GLA inh pH 4.5
51	O=C(CSc1nnc(-c2ccc(OC(F)F)cc2)o1)N1CCOCC1	-4.2%	-6.0
52	C/C(=N\N1CCN(c2ccccc2)CC1)c1cccs1	0.4%	-5.3
53	Cc1cc(C(=O)CSc2nnc(-c3ccncc3)n2-c2ccccc2)c(C)n1C	u	4.7
54	CCOC(=O)c1[nH]c2ccccc2c1NC(=O)Nc1ccc(OC)cc1	-1.2%	6.0
55	CN1c2ccc(Cl)cc2C(=O)NC1c1ccc([N+](=O)[O-])s1 (configuration not stated)	u	-10.4
56	N#Cc1nc(Cc2cccc3ccccc23)oc1N1CCOCC1	5.5%	2.9
57	O=C(NC(Cc1c[nH]c2ccccc12)c1nnc2n1CCCCC2)c1ccc(Cl)cc1 (configuration not stated)	1.3%	14.3
58	CN(C(=O)c1ccc(-c2nn(C)c(=O)c3ccccc23)cc1)c1ccccc1	0.8%	0.8
59	CCCCNC(=O)COc1ccccc1[N+](=O)[O-]	u	10.4
60	COC(=O)C(C)(C)ONC(=O)Nc1ccccc1Br	-0.8%	-3.4

entry	miR-21 reporter	Rango release inh
51	-40.9%	4.3%
52	-7.5%	-8.3%
53	-5.5%	-20.9%
54	-2.8%	10.6%
55	12.1%	0.2%
56	-21.7%	-14.3%
57	-11.5%	1.7%
58	17.9%	-14.3%
59	-50.9%	-5.4%
60	-5.0%	-7.0%

New compounds follow.
entry	Molecule	Rango-impB inh	GLA inh pH 4.5
61	CC(=O)c1cccc(NC(=S)NC(=O)c2ccccc2Br)c1	0.3%	-4.7
62	CCCOC(=O)c1ccc(NC(=O)COC)cc1	0.7%	-0.5
63	NS(=O)(=O)c1ccc(NC(=S)NCC2CCCO2)cc1 (configuration not stated)	4.9%	2.3
64	CC(=O)N1CCc2c(sc(NC(=O)CCS(=O)(=O)c3ccccc3)c2C#N)C1	-1.2%	x
65	O=C(COC(=O)c1cccc(Cl)c1)NC1CCCCCCC1	-2.1%	x
66	CCOc1ccc(-c2cc3nc(C4CCN(C(=O)OC(C)(C)C)CC4)c(C(=O)O)cn3n2)cc1	-4.2%	-2.3
67	CCCCNS(=O)(=O)c1ccc2nc(SCC(=O)Nc3cc(C)cc(C)c3)[nH]c2c1	6.2%	-4.8
68	COc1cc(SC)ccc1C(=O)Nc1ccc(OCC(=O)N2CCOCC2)cc1	0.8%	x
69	O=C1NC(c2ccc(-c3ccccc3[N+](=O)[O-])o2)C(C(=O)c2ccc(Cl)cc2)C(O)(C(F)(F)F)N1 (configuration not stated)	3.6%	1.8
70	COc1ccc(/C=C2\SC(=S)N(CC(=O)N3CCN(C)CC3)C2=O)cc1	-3.0%	-14.4
71	O=C(NC1(C(F)(F)F)NC(=O)N(C2CCCCC2)C1=O)C1CC1 (configuration not stated)	-2.9%	1.6
72	CCCC1=Nc2cc(C(=O)NCCN3CCOCC3)ccc2Sc2ccc(C)cc21	0.9%	x

entry	miR-21 reporter	Rango release inh
61	20.2%	18.9%
62	-33.3%	-9.1%
63	-3.9%	-1.6%
64	-2.8%	-7.6%
65	x	-0.7%
66	-28.4%	3.6%
67	2.6%	4.6%
68	-11.0%	-6.6%
69	9.4%	1.6%
70	-0.4%	1.9%
71	1.7%	-8.0%
72	11.9%	1.1%

An excerpt, so the mix of outcomes need not match the whole.
